Source: PubChem
CFTR F508del cor: correctors of CFTR F508del function in bronchial epithelial cells; actives 0.36% (n = 350,000); CFBE cells, YFP halide quenching; stimulated with forskolin plus potentiator P3; % fluorescence drop versus neutral controls; activity (quench increase), % at 7.58 µM;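 active = mean added fluorescence quench of at least 8% versus neutral control, with both replicates also reaching 8%; inconclusive = only one of the mean or replicate conditions met; inactive = mean below 8% and not both replicates reaching 8%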;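 note: cells transiently co-express mutant CFTR-F508del with the halide-sensitive YFP; corrector assay measuring rescue of mutant channel to the surface after 24 h compound exposure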
DENV2 CPE: DENV2-induced cell death inhibition. CPE inhibition, % at 9.99 µM. DENV2-infected cells, cytopathic effect rescue, plate reader. actives 1.7% (n = 350,000); in the data active = CPE inhibition above about 20%, passing the limit was not always enough; inconclusive = no clear call, values can overlap the other calls; tested in BHK-21 cells;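 note: 0% = median of neutral control wells and 100% = median of positive control wells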
ERp5 inh: inhibitors of human ERp5 | Q15084 | ERp5 insulin aggregation, absorbance 650 nm, 90 min | inhibition, % at 9.99 µM | actives 0.05% (n = 350,000);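 active = mean replicate inhibition above about 25%, with every replicate also reaching it, limit read from the data, passing the limit was not always enough; inconclusive = only one of those two criteria met; inactive = neither criterion met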
Target sequence (Q15084 whole entry, looked up): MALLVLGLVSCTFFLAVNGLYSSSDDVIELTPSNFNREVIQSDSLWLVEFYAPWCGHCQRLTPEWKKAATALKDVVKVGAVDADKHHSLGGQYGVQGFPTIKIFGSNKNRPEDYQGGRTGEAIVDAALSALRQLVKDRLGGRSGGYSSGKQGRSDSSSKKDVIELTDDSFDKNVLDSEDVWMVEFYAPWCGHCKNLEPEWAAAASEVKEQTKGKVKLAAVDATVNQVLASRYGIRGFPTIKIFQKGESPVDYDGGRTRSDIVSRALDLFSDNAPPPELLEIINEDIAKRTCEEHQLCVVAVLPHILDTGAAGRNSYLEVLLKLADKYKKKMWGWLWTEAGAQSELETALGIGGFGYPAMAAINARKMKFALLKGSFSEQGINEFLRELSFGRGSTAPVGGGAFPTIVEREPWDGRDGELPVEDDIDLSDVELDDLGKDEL
PAX8 inh HTS: inhibitors of PAX8 transcriptional activity in RMG-I cells; actives 1.2% (n = 360,000); AID 652154; RMG-I TPO-luciferase reporter, SteadyGlo, 24 h; inhibition, % at 12.6 µM;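 active = mean replicate inhibition at least 60% with every replicate also reaching 60%; inconclusive = only one of the two criteria is met; inactive = mean below 60% and not all replicates reaching 60%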;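 note: luciferase light reporting Pax8 driven TPO promoter activity; plate controls were median of neutral control wells for no effect and mitoxantrone controls for full effect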
EWS-Fli block: EWS/Fli transcriptional activity inhibition. inhibition, % at 12.6 µM. A673 NR0B1-luciferase reporter, viability-normalised. AID 651661. actives 0.67% (n = 350,000);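 active = mean inhibition of at least 50% after viability correction, with every replicate also passing that limit; inconclusive = mean reaches 50% but only one of two replicates passes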;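 note: firefly luciferase signal divided by Alamar Blue viability fluorescence both relative to DMSO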
INS-1E GSIS act: GLuc luminescence reporter in INS-1E cells, primary screen for activators of glucose-dependent secretion of insulin | INS-1E GLuc reporter insulin secretion, 2-3 h | activation, % at 16.6 µM | actives 0.61% (n = 370,000) | AID 743287;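 active = lowest replicate activation of at least 40%, so every replicate reaches that level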;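 note: 0% = median of neutral control wells and 100% = median of IBMX positive control wells; some compounds called inactive have numbers as strong as hits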
Xi reactivation: activators of X-chromosome reactivation in mouse fibroblasts. XiGFP mouse fibroblasts, % GFP-positive cells imaging, 3 d; cells co-treated with 5-aza-dC sensitizer; scaled so ellipticine positive control = 100%. activation, % at 7.58 µM. actives 0.055% (n = 360,000). AID 743238;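 active = mean normalized replicate activation at least 10% and every replicate at or above 10%; inconclusive = only one of the two criteria met; inactive = mean below 10% and not all replicates reach 10%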;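 note: 0% = median of on-plate neutral control wells and 100% = ellipticine 6 µM median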
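System: SV40-immortalized XiGFP fibroblast cells, line 68-5-11 / Incubation: 3-day compound exposure, then 15 min fixation at room temperature / Compound: single concentration per compound, delivered by pin transfer / Buffer or medium: DMEM plus 5-aza-dC sensitizer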
* marks the source's active call; other numbers are inactive results; ? = inconclusive; nt = no result given. An excerpt; the hit share may differ from the screen's.

SMILES | CFTR F508del cor | DENV2 CPE | ERp5 inh | PAX8 inh HTS | EWS-Fli block | INS-1E GSIS act | Xi reactivation
CCNC(=O)Nc1ccc2c(c1)C(=O)N(C)[C@H]1CC[C@H](CC(=O)N[C@@H](C)c3ccccc3)O[C@H]1CO2 | nt | -2.9 | -6.1 | -32.6 | -20.5 | 0.4 | 0.3
COC(=O)c1sccc1NC(=O)c1c(Cl)cnn1C | -0.1 | 4.9 | 6.8 | -1.3 | -7.3 | 6.9 | -0.1
COc1ccc(NC(=O)N(C)C[C@@H]2Oc3ccc(NS(=O)(=O)c4cn(C)cn4)cc3C(=O)N([C@H](C)CO)C[C@@H]2C)cc1 | -3.0 | -7.0 | -1.5 | nt | -9.6 | 15.3 | -1.1
Cc1ccc(S(=O)(=O)N(C)C[C@H]2Oc3c(NC(=O)NC4CCCCC4)cccc3C(=O)N([C@H](C)CO)C[C@H]2C)cc1 | 1.8 | 0.6 | -3.2 | -2.7 | -3.9 | -2.9 | -0.1
Cc1cc(C)c2ccc(C(=O)O)nc2c1O | nt | nt | nt | -6.1 | nt | 15.5 | nt
O=C(N/N=C/c1ccoc1)c1ccccc1Br | -0.1 | 5.6 | 1.3 | -3.4 | nt | -3.2 | -0.1
O=C(Nc1nnc(C2COc3ccccc3O2)o1)c1ccc(F)cc1 (configuration not stated) | nt | nt | nt | 4.0 | nt | 8.9 | 0.0
C[C@@H]1CCCCO[C@H](CN(C)S(=O)(=O)c2cccs2)[C@@H](C)CN([C@H](C)CO)C(=O)c2cc(NS(C)(=O)=O)ccc2O1 | -1.5 | 0.7 | -14.2 | 3.1 | -5.8 | 1.7 | -0.2
Cc1cnc(NC(=O)c2ccccn2)s1 | 1.8 | -4.5 | -0.5 | -12.4 | 10.9 | 4.0 | 0.8
O=C(N[C@@H]1CC[C@H](CCn2cc(-c3ccccc3)nn2)O[C@@H]1CO)c1cnccn1 | 0.6 | -5.2 | 9.0 | 7.3 | -0.3 | 9.4 | -0.8
Cc1cc(C)c(C(=O)N2CCCC(CNC(=O)C3(c4ccc(Cl)cc4)CC3)C2)c(=O)[nH]1 (configuration not stated) | -1.4 | nt | 8.9 | -4.6 | 10.9 | -5.1 | 0.0
O=C(NC1CCCC1)C1CCN(C(=O)c2ccc(Cl)cc2Cl)CC1 | -0.4 | 1.8 | -10.4 | -4.5 | -3.4 | 15.0 | 0.3
COc1ccc(-n2c(C(C)(C)C)csc2=Nc2c(C)n(C)n(-c3ccccc3)c2=O)cc1 | nt | nt | -0.7 | -10.8 | 0.3 | 16.5 | 0.1
O=C(Nc1ccc(Cl)cc1)c1cc(S(=O)(=O)Nc2ccccn2)ccc1Cl | 0.1 | -1.1 | 4.8 | -8.3 | -2.7 | -1.8 | 0.1
O=C(CCc1ccccc1)OCC(=O)c1ccc([N+](=O)[O-])cc1 | -0.4 | -11.8 | -5.0 | -4.1 | 0.8 | 1.3 | 0.3
CC(C)NC(=O)Nc1ccc2c(c1)CC(=O)N([C@@H](C)CO)C[C@H](C)[C@H](CN(C)Cc1ccc(Oc3ccccc3)cc1)O2 | 1.6 | -17.3 | 1.4 | -19.5 | 24.0 | -33.3 | 0.1
CN(C)CCN(C(=O)C1CCCCC1)c1nc2cc3c(cc2s1)OCO3 | -0.7 | 0.9 | 4.0 | nt | nt | -1.3 | 0.1
COC(=O)[C@H](CC(C)C)NS(=O)(=O)N(Cc1ccccc1)[C@@H](CC(C)C)C(=O)OC | -0.4 | -19.0 | 0.3 | -13.5 | 6.6 | nt | 0.0
COC(=O)c1cc(=O)nc2sc3cc(OC)ccc3n12 | nt | nt | nt | 6.3 | nt | 37.2 | nt
C=CCN1CCN(C(=O)c2ccc3c(c2)OCO3)CC1 | 2.1 | ? | -11.6 | -8.2 | -2.6 | 6.8 | 0.0
CC(=O)Nc1ccc(-c2csc(-c3cccnc3)n2)cc1 | 2.3 | 1.8 | 1.2 | -138.0 | -77.7 | -4.8 | 0.0
Cc1c(/C=N/NC(=O)c2cc(Br)ccc2O)c(=O)n(C)c(=O)n1C | -0.5 | 1.5 | -0.1 | 8.4 | 6.3 | 3.1 | 0.0
COc1ccc(C(=O)NNC(=S)NC(=O)c2ccc(Br)o2)cc1OC | 2.1 | 6.2 | -3.2 | 28.9 | 25.1 | 8.2 | -0.3
Cc1cc(NC(=O)CSc2nnc(CNC(=O)c3ccccc3)o2)no1 | 1.1 | 14.2 | 5.3 | nt | -10.4 | 31.5 | 0.0
O=C(CSc1ccc2nnc(-c3ccccn3)n2n1)N1CCOCC1 | 0.8 | -2.6 | 1.2 | 3.6 | -5.9 | 5.7 | 0.0

Part of the list above in order of SMILES length, low to high:
SMILES | CFTR F508del cor | DENV2 CPE | ERp5 inh | PAX8 inh HTS | EWS-Fli block | INS-1E GSIS act | Xi reactivation
O=C(N/N=C/c1ccoc1)c1ccccc1Br | -0.1 | 5.6 | 1.3 | -3.4 | nt | -3.2 | -0.1
COC(=O)c1cc(=O)nc2sc3cc(OC)ccc3n12 | nt | nt | nt | 6.3 | nt | 37.2 | nt
O=C(Nc1nnc(C2COc3ccccc3O2)o1)c1ccc(F)cc1 (configuration not stated) | nt | nt | nt | 4.0 | nt | 8.9 | 0.0
Cc1cc(NC(=O)CSc2nnc(CNC(=O)c3ccccc3)o2)no1 | 1.1 | 14.2 | 5.3 | nt | -10.4 | 31.5 | 0.0
CN(C)CCN(C(=O)C1CCCCC1)c1nc2cc3c(cc2s1)OCO3 | -0.7 | 0.9 | 4.0 | nt | nt | -1.3 | 0.1
O=C(CCc1ccccc1)OCC(=O)c1ccc([N+](=O)[O-])cc1 | -0.4 | -11.8 | -5.0 | -4.1 | 0.8 | 1.3 | 0.3
Cc1c(/C=N/NC(=O)c2cc(Br)ccc2O)c(=O)n(C)c(=O)n1C | -0.5 | 1.5 | -0.1 | 8.4 | 6.3 | 3.1 | 0.0
COc1ccc(-n2c(C(C)(C)C)csc2=Nc2c(C)n(C)n(-c3ccccc3)c2=O)cc1 | nt | nt | -0.7 | -10.8 | 0.3 | 16.5 | 0.1
O=C(N[C@@H]1CC[C@H](CCn2cc(-c3ccccc3)nn2)O[C@@H]1CO)c1cnccn1 | 0.6 | -5.2 | 9.0 | 7.3 | -0.3 | 9.4 | -0.8
Cc1cc(C)c(C(=O)N2CCCC(CNC(=O)C3(c4ccc(Cl)cc4)CC3)C2)c(=O)[nH]1 (configuration not stated) | -1.4 | nt | 8.9 | -4.6 | 10.9 | -5.1 | 0.0
COC(=O)[C@H](CC(C)C)NS(=O)(=O)N(Cc1ccccc1)[C@@H](CC(C)C)C(=O)OC | -0.4 | -19.0 | 0.3 | -13.5 | 6.6 | nt | 0.0
Cc1ccc(S(=O)(=O)N(C)C[C@H]2Oc3c(NC(=O)NC4CCCCC4)cccc3C(=O)N([C@H](C)CO)C[C@H]2C)cc1 | 1.8 | 0.6 | -3.2 | -2.7 | -3.9 | -2.9 | -0.1
CC(C)NC(=O)Nc1ccc2c(c1)CC(=O)N([C@@H](C)CO)C[C@H](C)[C@H](CN(C)Cc1ccc(Oc3ccccc3)cc1)O2 | 1.6 | -17.3 | 1.4 | -19.5 | 24.0 | -33.3 | 0.1
COc1ccc(NC(=O)N(C)C[C@@H]2Oc3ccc(NS(=O)(=O)c4cn(C)cn4)cc3C(=O)N([C@H](C)CO)C[C@@H]2C)cc1 | -3.0 | -7.0 | -1.5 | nt | -9.6 | 15.3 | -1.1

The listing continues:
SMILES | CFTR F508del cor | DENV2 CPE | ERp5 inh | PAX8 inh HTS | EWS-Fli block | INS-1E GSIS act | Xi reactivation
Cc1cc(C)c(S(=O)(=O)n2cc(C(C)C(N)C(=O)O)c3ccccc32)c(C)c1 (configuration not stated) | -1.2 | 10.4 | -0.8 | 0.4 | -5.4 | nt | 0.0
O=C(NCc1ccccn1)c1cccc(S(=O)(=O)Nc2ccccc2Cl)c1 | -0.5 | -12.6 | 1.5 | -5.1 | -9.9 | 13.9 | 0.2
O=C(O)c1ccc(/C=C(\c2nc3ccccc3[nH]2)c2nc3ccccc3s2)cc1 | 0.5 | -2.8 | -0.4 | 1.0 | -29.3 | -14.3 | -0.2
Cc1cccc(C)c1C(OCCN(C)C)C1CCCCC1 (configuration not stated) | nt | nt | nt | 1.3 | nt | -16.1 | -0.3
CCN(CC)S(=O)(=O)c1ccc2c(c1)N(CC(=O)N1CCC(C(N)=O)CC1)C(=O)CO2 | -1.2 | 10.7 | -5.0 | -17.2 | 1.4 | nt | -0.1
COC(=O)CCN(C(=O)C1C2CC3CC(C2)CC1C3)c1ccccn1 (configuration not stated) | nt | nt | nt | 0.5 | nt | nt | nt
O=C(c1cc(COc2cccc(C(F)(F)F)c2)on1)N1CCC(c2ccncc2)CC1 | 1.9 | -5.1 | 5.2 | -24.2 | 6.2 | -49.0 | 0.2
COCCS(=O)(=O)N(Cc1ccccc1)[C@H](C(=O)OC)C(C)C | -0.4 | 0.4 | 1.9 | -0.8 | -7.9 | -3.2 | 0.0
Cc1cc(C)cc(OC(C)C(=O)Nc2ccc3c(c2)n(C)c(=O)n3C)c1 (configuration not stated) | -2.0 | -0.7 | -0.7 | -30.0 | 15.6 | 4.7 | 0.0
